Bioassay records deposited in PubChem BioAssay by National Center for Advancing Translational Sciences (NCATS).
VACV mCherry inh – vaccinia inhibition (mCherry reporter) | 310,000 tested, 0.63% active | Vaccinia virus mCherry reporter infection, fluorescence; about a quarter of the inactives have no number | Potency, µM (top dose mostly 36.5 µM), for inactives: top-dose activity change, negative = inhibition, actives largely listed as inhibitors; active = well fitted inhibition curve with a large enough effect; inconclusive = small, poorly fitted or top-dose-only effect; inactive = no such curve, though single readings can be large or run the other way; tested in A549 cells; note: nearly all actives have a fitted effect of over 35% in size; inactives centre near -10
VACV Venus inh – inhibitors of vaccinia virus (Venus reporter) | Vaccinia virus Venus reporter expression, fluorescence | Potency, µM (doses to about 36.5 µM), without a hit: top-dose activity change, negative = inhibition, actives largely listed as inhibitors | 330,000 tested, 0.46% active; active means well fitted inhibition curve with a large enough effect; inconclusive means small, poorly fitted or top-dose-only effect; inactive means no such curve, though single readings can be large or run the other way; tested in A549 cells; note: nearly all actives have a fitted effect of over 30% in size; inactives centre near -10
The depositor's hits bear a star; i = inactive; ? = inconclusive; . = no result given; & = joins results of further samples; [ ] = remark or other dose. % is set by controls: 0 for no effect and ±100 for the full control effect; potency is the fitted concentration of half-maximal effect.

The line under a structure holds: VACV mCherry inh | VACV Venus inh
O=C(COc1cccc(Br)c1)N/N=C/c1ccc2c(c1)OCCO2
→ i | -8%
O=C(Nc1ccc(N2CCN(c3ncccc3C(F)(F)F)CC2)nc1)c1cccs1
→ 14µM* | 20µM*
O=C(/C=C/c1ccccc1)Nn1cnc2ccccc2c1=O
→ i | -2%
CC(=O)Nc1cccc(C(=O)N/N=C/c2ccc(F)cc2)c1
→ -6% | 0%
O=C(Cc1ccccc1)NCCS(=O)c1ccc(Cl)cc1 (stereo not given)
→ -10% | -10%
Cc1nc(C(=O)NCc2ccccc2)sc1C1(C)CC(c2cccc([N+](=O)[O-])c2)=NO1 (stereo not given)
→ i | -7%
Cc1ccc2nc3c(cc2c1)CN(Cc1ccco1)C(=NCC1CCCO1)S3 (stereo not given)
→ -4% | -14%
Cn1c(CNS(=O)(=O)c2cccc(Cl)c2)cc(=O)n(C)c1=O
→ i | -5%
OC(c1ccccc1)c1nc(-c2cccs2)cs1 (stereo not given)
→ -17% | -9%
CC(=O)c1ccc(NC(=O)CN2CCCCCC2)cc1
→ -13% | 8%
Nc1ccc(C2(c3ccc(N)cc3)OC(=O)c3ccccc32)cc1
→ -5% | -16%
Cc1cc(C)cc(C(=O)NCC(=O)OCC(=O)N2CCN(S(=O)(=O)c3ccc4ccccc4c3)CC2)c1
→ -24% | -26%
Cc1cc(C(=O)CS(=O)(=O)c2ccccc2)cc(C)c1OC(=O)N(C)C
→ i | -10%
CCN(CC)S(=O)(=O)c1ccc2c(c1)nc(SC(C)C(N)=O)n2-c1ccc(OC)cc1 (stereo not given)
→ . | ?
O=[N+]([O-])c1cccc2ccc(N3CCOCC3)nc12
→ ? | -26%

(list continues)
The line under a structure holds: VACV mCherry inh | VACV Venus inh
CCOC(=O)C(=C1Nc2ccccc2N1)n1c(-c2cccnc2)nc2ccccc21
→ i | 0%
N#Cc1c(N2CCOCC2)nc(N)c2c(N)nc3c(c12)CC(CCl)O3 (stereo not given)
→ -20% | -27%
O=C(CSc1nc2ccccc2n1CCc1ccccc1)c1ccc(O)c(O)c1
→ i | -25%
Cc1ccc(CNC(=O)CN2C(=O)NC3(CCCC3)C2=O)cc1
→ i | -23%
Cc1cccc(C)c1NC(=O)CC(C)c1ccccc1 (stereo not given)
→ i | -17%
Cc1nc(NCc2ccco2)c2cn[nH]c2n1
→ -3% | 5%
Nc1cc(Oc2ccc(Cl)cc2Cl)nc(N)n1
→ -9% | -21%
O=C(CCc1ccccc1)Nc1ccc(NC(=O)c2ccco2)nc1
→ -12% | -5%
Cc1ccc(NC(=O)Cn2nc(Cc3ccncc3)c3ccccc3c2=O)c(Cl)c1
→ -19% | -7%
CC(C)(C)c1ccc(-c2nc(SCCCOc3ccccc3)n3[nH]c(=O)cc3n2)cc1
→ -22% | -21%
COc1ccccc1CCNC(=O)C(=O)NCCC1CCCCN1S(=O)(=O)c1ccccc1 (stereo not given)
→ ? | -6%
CCCCN1C(=O)NC(=O)C2(Cc3ccccc3N3CCOCC32)C1=O (stereo not given)
→ -13% | -17%
O=C(NCCC1=CCCCC1)NC1CCCCC1
→ . | -24%
CC(C)N1CCc2c(sc(NC(=S)NC(=O)c3ccccc3)c2C#N)C1
→ -16% | -13%
Cc1cccc(CCNC(=O)c2ccc3c(c2)nc2n3CCCCC2)c1
→ -4% | -12%

(list continues)
The line under a structure holds: VACV mCherry inh | VACV Venus inh
CCCOc1ccc(S(=O)(=O)N2CCN(C)CC2)c2ccccc12
→ ? | -25%
COc1ccccc1OCc1ccc(C(=O)NC2CCCCC2)o1
→ 69%[activator] | 0%
COc1cccc(NC(=O)C2CCN(S(C)(=O)=O)CC2)c1
→ i | -7%
CSC[C@H]1CN(CCc2ccccc2)C(=O)[C@@H]1CC(=O)Nc1ccccc1
→ i | -9%
Cc1cc(Nc2cccc(Cl)c2C)n2nc(Cc3ccccc3)nc2n1
→ -12% | -4%
CC(C)CN(C(=O)COC(=O)c1ccc([N+](=O)[O-])s1)c1c(N)n(Cc2ccccc2)c(=O)[nH]c1=O
→ i | -13%
Brc1ccc(Oc2cc(Br)c(Br)cc2Br)c(Br)c1
→ i | -3%
Cc1ccc(NC(=S)NC(C)(C)C)c([N+](=O)[O-])c1
→ 0%[7.34 µM] | -11%[7.34 µM]
Cn1c(COc2ccccc2)nnc1SCC(=O)Nc1ccc2c(c1)OCO2
→ i | -4%
Cn1nc(C(C)(C)C)cc1N1C(=O)CCC1(C)C(=O)NC1CCCC1 (stereo not given)
→ i | 6%
CN(C)CCCNc1nc(-c2ccccc2)c2c(c1C#N)CC(C)(C)OC2
→ -16% | -11%
O=C1c2ccccc2C(=O)c2ccccc21
→ -9% | -5%
Cc1[nH]c(=O)[nH]c1C(=O)CCCCC(=O)O
→ -3% | -11%
O=C(O)CCN1C(=O)c2ccc(NC(=O)CSc3ccc(Cl)cc3)cc2C1=O
→ -5% | -7%
CCN(CC(=O)Nc1ccc(NC(C)=O)cc1)C(=O)c1oc2c(ccc3ccccc32)c1C
→ -9% | -10%

Continued.
The line under a structure holds: VACV mCherry inh | VACV Venus inh
O=C(/C=C/c1c[nH]c2ccccc12)c1c(O)n(CCc2ccccc2)c(=O)[nH]c1=O
→ -7% | 8%
CC1=CC(c2ccc(Cl)cc2)n2nc(NC(=O)CCC(=O)O)nc2N1 (stereo not given)
→ i | 1%
S=C(Nc1ccccc1)N1N=C(c2cccs2)CC1c1cccs1 (stereo not given)
→ -10% | -2%
Cc1ccc(O)c(-c2[nH]ncc2C(=O)c2ccc(Cl)cc2)c1
→ ? | -26%
Brc1cccc(CNCC2CCCO2)c1 (stereo not given)
→ -13% | -14%
O=C(O)c1ccc2c3c(ncnc13)-c1ccccc1C2=O
→ . | ?
COc1ccc(CN(C(=O)CSc2nnc(-c3ccccc3C)o2)c2ccc(F)cc2)cc1
→ . | -10%
Cc1cc(=O)oc(C)c1C(=O)N[C@@H]1CCCCNC1=O
→ . | -3%
CNCc1ccccc1Sc1ccc(OC)c(OC)c1
→ . | -22%
COc1ccc(NC(=O)Cc2c(C(=O)O)n(C)c3ccccc23)cc1OC
→ -13% | -17%
C[C@@H]1CN([C@@H](C)CO)C(=O)c2cc(Br)cnc2O[C@H]1CN(C)C(=O)C1CC1
→ i | -3%
CCOC(=O)C1CCN(C(=O)c2cccnc2)CC1
→ -12% | -13%
O=c1c2ccccc2nc(/C=C/c2ccc(Cl)cc2)n1CCO
→ ? | ?
Cc1ccc2c(c1)Cc1c(nc(-c3ccc(Cl)cc3)nc1SCC(=O)N1CCCCC1)O2
→ -8% | -9%
CCOc1ccc(C)cc1S(=O)(=O)NC1CCCCCC1
→ -2% | -6%

Three entries out of the list, arranged by number of heavy atoms, lowest first.
The line under a structure holds: VACV mCherry inh | VACV Venus inh
CCOC(=O)C1CCN(C(=O)c2cccnc2)CC1
→ -12% | -13%
O=C(O)c1ccc2c3c(ncnc13)-c1ccccc1C2=O
→ . | ?
O=c1c2ccccc2nc(/C=C/c2ccc(Cl)cc2)n1CCO
→ ? | ?

Later entries.
The line under a structure holds: VACV mCherry inh | VACV Venus inh
CN(C)c1ccc(NC(=O)CSc2n[nH]c(-c3ccncc3)n2)cc1
→ -18% | -6%
Cc1nc2ccccc2c(=O)n1N
→ . | 1%
N#Cc1ccccc1S(=O)(=O)N1CCN(C(=O)[C@H](Cc2ccccc2)NC(=O)c2ccco2)CC1
→ i | -15%
O=C(Nc1cc(C(F)(F)F)ccc1-n1cncn1)c1ccc([N+](=O)[O-])o1
→ ? | ?
O=C(NNC(=O)c1ccccc1O)c1ccco1
→ -6% | 9%
Cc1cc(NC(=O)Cn2cnc3c(cnn3C(C)(C)C)c2=O)no1
→ -10%[1.46 µM] | -4%
COc1cc(-c2cc(NC(C)=O)c3ncc(-c4ccccc4)n3c2)cc(OC)c1OC
→ -9% | ?
C=CCn1c(SCC(=O)O)nnc1-c1cccc(Cl)c1
→ . | -6%
CC(=O)Nc1ccc(NC(=O)C2CCCN2C(=O)Nc2ccc(F)c([N+](=O)[O-])c2)cc1 (stereo not given)
→ i | -10%
COC(=O)c1cc(NC2c3ccccc3C(=O)N2c2cccnc2)cc(C(=O)OC)c1 (stereo not given)
→ 7% | -12%
Cc1ccc(S(=O)(=O)N(C)c2ccc(OCC(=O)Nc3nc(-c4ccccc4)cs3)cc2)cc1
→ -20% | -14%
Cc1ccc(OCC(=O)O/N=C(\N)c2cccc([N+](=O)[O-])c2)cc1C
→ -21% | 12%
CCOc1ccc(S(=O)(=O)Nc2ccc(C(=O)N(C)CC(=O)Nc3ccc(OC)cc3)cc2)cc1
→ -27% | -8%
COc1ccc(Br)cc1CNC(=O)c1ccc2nc(C(C)C)oc2c1
→ -21% | 2%
Cc1oc(-c2cccs2)nc1CS(=O)CC(=O)NCCCN1CC(C)CC(C)C1 (stereo not given)
→ i | -12%

Further entries:
The line under a structure holds: VACV mCherry inh | VACV Venus inh
Nc1c(C(=O)NC2CCCC2)c2nc3ccccc3nc2n1CC1CCCO1 (stereo not given)
→ ? | -18%
CC(C)NC(=O)N(C)C[C@H]1Oc2cc(Br)ccc2S(=O)(=O)N([C@H](C)CO)C[C@H]1C
→ -10% | -6%
CCOc1ccc(NS(=O)(=O)c2ccc(C(=O)N(C)CC(=O)Nc3ccc(C)cc3)cc2)cc1
→ ? | -27%
Cc1noc(C)c1S(=O)(=O)Nc1ccc2c(c1)C(=O)N([C@H](C)CO)C[C@H](C)[C@@H](CN(C)C(=O)Nc1ccccc1)O2
→ i | 3%
CCOC(=O)c1c(C)n(CC)c2c1cc(O)c1ccccc12
→ -3% | -29%
O=C(Nc1cccc2ccccc12)c1ccco1
→ i | 11%
CCOc1ccc(S(=O)(=O)N(C)c2ccc(OCC(=O)NCc3cccnc3)cc2)cc1
→ -2% | -13%
CCCCN1C(=O)Nc2ccccc2S1(=O)=O
→ -17% | -12%
O=[N+]([O-])c1ccc(O)c(C=Nc2cccc3ccccc23)c1
→ ? | -3%
CC(=O)c1cccc(OCc2cc(C(=O)N(C)Cc3nccs3)no2)c1
→ i | -5%
O=C(NCC1CCCO1)c1ccc(Cn2c(=S)[nH]c3ccccc3c2=O)cc1 (stereo not given)
→ -14% | -17%
CC(=O)c1sc(NC(=O)c2c(-c3ccccc3)c(-c3ccccc3)nn(C)c2=O)nc1C
→ 4% | -4%
CC(=O)c1ccc(Nc2nc(C(N)Cc3ccc(N)cc3)cs2)cc1 (stereo not given)
→ -14% | -5%
CC(=O)Nc1cc2c(c([N+](=O)[O-])c1C)C(C)(C)CC2(C)C
→ -17% | -18%
CCCCn1c(=O)n(CC(=O)Nc2ccc(C)c(Cl)c2)c(=O)c2c1ncn2Cc1ccco1
→ -7% | -24%

(continued)
The line under a structure holds: VACV mCherry inh | VACV Venus inh
COc1ccc(Cn2c(=O)[nH]c3cc(C(=O)NC4CCCC4)ccc3c2=O)cc1
→ 1% | 4%
COc1ccc(/C=C/C(=O)Nc2sc3c(c2C(N)=O)CCCC3)cc1
→ -4% | -3%
CCCNC(=O)CCSc1nc(-c2ccc3c(c2)OCO3)cc(C(F)(F)F)n1
→ -13% | -6%
COc1ccccc1N1CCN(C(=O)CSc2nnc(NC(=O)C(C)C)s2)CC1
→ i | -12%
COc1ccc2[nH]cc(CCNC(=O)Nc3ccccc3C)c2c1
→ ? | -18%&-13%
CS(=O)(=O)/C(C#N)=C/c1cccn1S(=O)(=O)c1cccc2ccccc12
→ i | -9%
CCCn1c(SCCC(=O)O)nc2ccccc21
→ -11% | -2%
CCc1ccc(N(CC(=O)N2CCOCC2)S(C)(=O)=O)cc1
→ -10% | -3%
Cc1c(C(=O)N2CCOCC2)sc(NC(=O)C(C)C)c1C#N
→ -22% | -13%
COCCN(C(=O)CSc1nc2nc(C)cc(C)n2n1)c1c(N)n(Cc2ccccc2)c(=O)[nH]c1=O
→ -3% | 1%
C/C=C(\C)C(=O)N1CC2(CC(c3cccc(NC(=O)CCCCC)c3)=NO2)C[C@@H]1C(N)=O (stereo not given in full)
→ -22% | -16%
c1cncc(-c2nc(-c3ccco3)cs2)c1
→ -5% | -1%
CCC(C)NC(=O)c1ccc(C2SCC(=O)N2Cc2ccccc2)cc1 (stereo not given)
→ 1% | -3%
O=C(C1CCCN(S(=O)(=O)c2ccc(Br)s2)C1)N1CCN(c2ccccc2)CC1 (stereo not given)
→ -17%&-21% | -23%&-11%
CCCC(C(=O)NCc1ccco1)N(C(=O)CNS(=O)(=O)c1ccc(Cl)cc1)C1CCCC1 (stereo not given)
→ . | -4%

The results go on.
The line under a structure holds: VACV mCherry inh | VACV Venus inh
CCCN1CCCc2cc(CN(CCCN3CCOCC3)C(=O)Nc3ccc(CC)cc3)ccc21
→ i | -21%
Cc1ccc(C2OC34CCCCCC3C(C#N)(C(=N)O4)C2(C#N)C#N)cc1 (stereo not given)
→ i | -7%
COC(=O)c1cc2c(ccn2-c2ccc(F)cc2)n1Cc1ccc(OC(C)=O)cc1
→ -8% | -29%
COC(=O)c1c(C)oc2c1cc(NS(=O)(=O)c1ccc(C(=O)O)cc1)c1ccccc12
→ ? | 1%
Cc1cnc(C(=O)OCC(=O)Nc2ccc(C)c(S(=O)(=O)N3CCCCC3)c2)cn1
→ i | -7%
CC1(C)CC(=O)C(C(C2=C(O)CC(C)(C)CC2=O)c2ccc(Br)s2)C(=O)C1 (stereo not given)
→ -8% | -11%
O=C(NCc1c[nH]c2ccccc12)c1ccccc1
→ -17% | 4%
COC(=O)c1ccc(NC(=O)c2cccc(N3C(=O)CCC3=O)c2)cc1
→ i | 9%
CCOC(=O)CC(=O)CSc1nc(CC)c(C)cc1C#N
→ i[7.34 µM] | -15%[7.34 µM]
